CtBP-E1A blk: inhibitors of CtBP/E1A interaction. hit rate 0.49% among 340,000. AlphaScreen GST-E1A/His-CtBP binding, 1536-well; hits give low values; control for the full effect not named in the record. activity change, % (concentration not given with the values); in the data active means activity change below about -65%; inconclusive means about -30% to -65%; inactive means above about -30%; also: % is scaled to controls: 0 for no effect and ±100 for the full control effect
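Steps: dispense buffer (Tris pH 8.0, NaCl 300 mM, TCEP 1 mM, BSA, Tween 20); add 5X protein mix (GST-E1A, His-CtBP, 125 nM each); pin 23 nL compound; 2 h at 37 °C, dark; add 5X beads (50 ug/mL); 1 h; read.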
D2 agonist: activates the human D2 dopamine receptor; P14416; DiscoveRx PathHunter D2 beta-arrestin, luminescence, 90 min; 100% = 57 uM dopamine signal; activation, % (concentration not given with the values); hit rate 0.084% among 360,000; AID 624465; in the data active = activation above about 40%; inconclusive = about 15% to 40%; inactive = below about 15%; also: compound concentration not given in the record; the text of the record calls up to 30% inactive
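Agonist mode: compounds alone added to overnight-plated D2 PathHunter cells for 90 min at 37 C, with 57 uM final dopamine (EC100) defining full response. Beta-arrestin recruitment detected by chemiluminescent reagent, read after 1 h at ambient temperature.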
PINK1 modulator: changes PINK1 expression. PINK1 immunofluorescence, high-content cytometry, 24 h. Potency, µM (doses to about 76.6 µM), without a hit: at the top dose activation (PINK1 increase), usual class: activators. hit rate 0.2% among 410,000. AID 624263; active = well fitted activation curve with a large enough effect; inconclusive = small, poorly fitted or top-dose-only effect; inactive = flat fitted curve, though single readings scatter; cell line not stated here;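 also: potency is read from the fitted curve at half-maximal effect; % of control where 0% means no effect; nearly all actives have a fitted effect of over 65% in size; a mitochondrial uncoupler was the plate control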
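Stable cell line treated 24 h with compounds at 5 concentrations (CCCP controls), then fixed and immunostained for PINK1 plus nuclear and cell stains; PINK1 immunofluorescence quantified by laser-scanning microplate cytometry.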
TRPML1 blocker: inhibitors of human TRPML1 channel; Q9GZU1; TRPML1-inducible cells, Ca2+ dye fluorescence, FDSS; hits give low values; inhibition of EC80 agonist-evoked calcium signal; activity change, negative = inhibition, % (no concentration beside the values); hit rate 0.02% among 390,000; AID 624415; in the data active means activity change below about -50%; inconclusive means about -30% to -50%; inactive means above about -30%;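 also: stimulus is agonist 54-4 at its EC80 concentration; % is scaled to controls: 0 for no effect and ±100 for the full control effect; compound concentration not given in the record; the text of the record puts the active cut at -80%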
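Calcium fluorescence in TRPML1-DL cells induced overnight with Tet: a 110 s read after compound pin addition, then a 110 s antagonist read after challenge with 54-4 at 4 uM final (EC80).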
TRPML1 ag: activates the human TRPML1 channel | TRPML1-expressing cells, Ca2+ dye fluorescence, FDSS; host cell line not named in the record; reference of the full effect not given here | activation, % (test concentration not listed) | Q9GZU1 | hit rate 0.12% among 410,000; in the data active = activation above about 50%; inconclusive = about 30% to 50%; inactive = below about 30%; also: 0% is about no effect; the text of the record puts the active cut at 80%
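TRPML1-DL cells, Tet-induced overnight (~16 h, 37 degrees C), loaded 45-90 min at room temperature with Ca8 no-wash calcium dye plus quencher. FDSS fluorescence: 10 s baseline, compound pin-transfer, 110 s agonist read, then EC80 54-4 (4uM final) and 110 s antagonist read.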
Six1-Eya2 inh: blocks human Six1 binding to Eya2; AlphaScreen GST-Six1/His-Eya2 binding, biochemical; hits give low values; control for the full effect not named in the record; activity change, % (no concentration beside the values); hit rate 0.56% among 360,000; in the data active = activity change below about -65%; inconclusive = about -30% to -65%; inactive = above about -30%; also: % is scaled to controls: 0 for no effect and ±100 for the full control effect; compound concentration not given in the record
Target sequence (O00167 whole entry, looked up): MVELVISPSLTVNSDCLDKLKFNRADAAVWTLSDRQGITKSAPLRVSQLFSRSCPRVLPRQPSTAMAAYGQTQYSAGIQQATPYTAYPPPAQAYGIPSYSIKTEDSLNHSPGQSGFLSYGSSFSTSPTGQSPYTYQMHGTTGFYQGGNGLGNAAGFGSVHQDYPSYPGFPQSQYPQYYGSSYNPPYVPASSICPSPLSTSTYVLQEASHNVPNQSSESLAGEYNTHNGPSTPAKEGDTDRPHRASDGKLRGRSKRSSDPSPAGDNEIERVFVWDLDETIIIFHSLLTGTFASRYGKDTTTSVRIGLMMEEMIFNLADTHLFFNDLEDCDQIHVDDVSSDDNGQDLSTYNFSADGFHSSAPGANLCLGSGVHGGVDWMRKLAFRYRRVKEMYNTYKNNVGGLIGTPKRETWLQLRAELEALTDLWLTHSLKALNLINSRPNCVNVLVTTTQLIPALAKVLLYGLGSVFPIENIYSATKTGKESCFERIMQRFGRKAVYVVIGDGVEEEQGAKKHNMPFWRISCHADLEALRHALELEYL
Target sequence (Q15475 whole entry, looked up): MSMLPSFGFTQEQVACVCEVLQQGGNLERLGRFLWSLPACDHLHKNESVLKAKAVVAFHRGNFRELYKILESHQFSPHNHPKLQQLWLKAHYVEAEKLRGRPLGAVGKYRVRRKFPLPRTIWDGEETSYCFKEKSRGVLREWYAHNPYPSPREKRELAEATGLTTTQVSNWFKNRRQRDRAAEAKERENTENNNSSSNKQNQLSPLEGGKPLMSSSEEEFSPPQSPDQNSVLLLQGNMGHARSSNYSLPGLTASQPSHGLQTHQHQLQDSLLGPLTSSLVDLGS
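Compounds are tested against tagged Six1 and Eya2 proteins bridged by glutathione donor and nickel acceptor beads; after a one-hour incubation at 37 °C without light, AlphaScreen emission is recorded.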
* marks the source's active call; other numbers are inactive results; ? = inconclusive; / = no result given; & = joins results of further samples; [ ] = remark or other dose. Not a hit list; overall some 1% were active at least once.

SMILES	CtBP-E1A blk	D2 agonist	PINK1 modulator	TRPML1 blocker	TRPML1 ag	Six1-Eya2 inh
C[C@@H]1O[C@@H](O[C@H]2[C@H](O)[C@@H](O)[C@H](Oc3c(-c4ccc(O)cc4)oc4cc(O)cc(O)c4c3=O)O[C@@H]2CO)[C@H](O)[C@H](O)[C@H]1O	2	-6.2	-0.1%	-17	-0.4	2
O=C(Cn1cnc2c(cnn2-c2ccccc2)c1=O)N1CCCc2ccccc21	-6	-2.1	-2.8%	10	-1.1	-8
Cc1ccccc1NC(=O)c1cccc(N2C(=O)C3C4CCC(C4)C3C2=O)c1 (configuration not stated)	1	-2.5	33%[38.3 µM]	2	-0.8	0
CC(Cc1cccnc1)NC(=O)c1ccccc1OC1CCN(S(C)(=O)=O)CC1 (configuration not stated)	12	-0.4	-1.0%	1	-0.9	7
COCCNC(=O)CN1CCCCCC1	2	-1.3	-0.6%	1	-0.5	1
COc1ccc(CCNC(=O)C2CCN(c3nc4ccccc4nc3C(F)(F)F)CC2)c(OC)c1	/	/	1.4%	-4	-0.7	/
CC1(C)CC(=O)c2sc(NC(=O)CN3CCCCC3)nc2C1	6	-1.0	-0.9%	-7	-0.9	-3
Cc1cc(-c2nnc(CCC(=O)N(CC3CC3)CC3CCCO3)o2)no1 (configuration not stated)	1	0.2	2.0%	6	0.3	6
O=C(Cc1ccc(O)cc1)NC1CCCCCC1	5	-3.1	-2.2%	11	0.0	7
O=C(Nc1ccccc1C(=O)NCc1cccnc1)c1ccccc1F	0	-0.3	-0.3%	1	-0.8	-3
Cc1ccc(C(C(=O)NC2CCCCC2)N(Cc2ccccc2)C(=O)Cc2c[nH]c3ccccc23)o1 (configuration not stated)	-19	-0.6	9.7%	24	3.0	-20
O=c1cc(NCCO)c2ccccc2o1	5	-3.8	0.4%	-1	0.9	0
Cc1coc2c(C)c3oc(=O)c(CCC(=O)N(C)CC(=O)O)c(C)c3cc12	/	-0.3	1.0%	34	-0.6	?
CCC(O)C(C)(C)C (configuration not stated)	-12	-2.6	1.5%	-4	0.3	6
CCc1ccc(/C(C)=N/NC(=O)c2ccccn2)cc1	5	-4.3	0.0%	4	-0.3	-6
O=C(NCc1ccccc1)c1ccc(Oc2ccc(C(=O)NCc3ccccc3)cc2)cc1	6	-1.6	8.3%	-4	0.3	6
Cc1ccc[n+](/C(C(=S)NCc2ccco2)=C(/[O-])c2ccccc2Cl)c1	2	0.6	0.9%	6	0.2	-3
CC(C)c1ccc(NC(=O)COC(=O)/C=C/c2cccc([N+](=O)[O-])c2)cc1	-1	-1.7	7.1%	-14	0.5	3
CCOC(=O)c1ccc(NC(=O)Cn2nc(C)c3nn(-c4ccc(Cl)cc4)c(C)c3c2=O)cc1	/	/	1.9%	5	0.7	/
C/C(=N\NC(=O)c1ccc(Cn2cc([N+](=O)[O-])cn2)o1)c1cccc(NC(=O)C(C)C)c1	3	2.2	2.9%	-5	1.4	-5
Cc1ccc(-c2cc(C(=O)N3CCN(S(=O)(=O)c4ccc(Br)cc4)CC3)[nH]n2)cc1C	/	/	1.0%	5	0.0	/
Cc1cc(N2CCCC2=O)c(N)cc1N	-25	0.2	25%[38.3 µM]	21	0.8	1
CCCc1cc(=O)oc2cc(C)cc(OC(C)C(=O)N[C@@H](Cc3c[nH]c4ccccc34)C(=O)O)c12 (some centres not stated)	19	-4.7	2.3%	3	0.4	20
COc1ccc(N2C(=O)CCC(C(=O)N(C)C3CCCCC3)C2c2ccc(OC)c(OC)c2)cc1 (configuration not stated)	8	2.8	-3.5%	2	0.0	5
COc1cc(OC)c(C(=O)OCC(=O)N(Cc2ccccc2)C(C)(C)C)cc1OC	-19	0.8	0.6%	9	0.8	-19
SMILES	CtBP-E1A blk	D2 agonist	PINK1 modulator	TRPML1 blocker	TRPML1 ag	Six1-Eya2 inh
Cc1ccc(NC(=O)CSCc2cc(=O)n3nc(C4CC4)sc3n2)cc1	0	14	-1.2%	-13	0.1	-1
CCc1cccc(CC)c1NC(=O)Cn1c(-c2ccccc2Cl)nc2ccccc21	11	-3.5	4.2%	-6	0.9	5
O=CN/N=C/c1c(O)ccc2ccccc12	/	-0.2	?	8	-0.8	-91*
CC(=O)c1cccc(NC(=O)N2CCCCCC2)c1	-1	5.1	-1.2%	0	1.1	0
CCCNc1nc(Cl)nc(Nc2ccc(Cl)cc2)n1	1	4.1	-0.9%	32	0.8	3
CCc1ccc(NC(=O)CSc2nc(=O)n(Cc3ccncc3)c3c2CCC3)cc1	/	/	-1.0%	0	0.8	/
CCn1c(=O)c(CCC(=O)NCCN2CCOCC2)c(C)c2c(C)nn(-c3cccc(C)c3)c21	2	-2.6	0.2%	1	0.5	1
CCCCC(=O)Nc1nc(C)c(-c2csc(Nc3ccccc3OC)n2)s1	-2	-3.6	4.9%	4	-0.5	-5
CCOC(=O)C1CCN(Cc2ccc(F)cc2F)CC1	15	2.4	-1.9%[38.3 µM]	12	3.2	-1
COc1cc(NC(=O)c2cc(-c3ccc(F)cc3OC(C)C)n[nH]2)cc(OC)c1OC	-5	3.4	7.7%	/	-1.1	-5
COc1cc(NC(=O)c2cccs2)ccc1NC(=O)c1ccco1	-1	-0.8	-1.2%	11	-1.3	-12
COCCCNc1nc2nonc2nc1N1CCC(C(C)N2CCOCC2)CC1 (configuration not stated)	-2	1.6	-0.4%	-13	1.0	3
CSCC[C@H](NC(=O)c1cccc([N+](=O)[O-])c1C)c1nc2ccccc2[nH]1	-9	-6.3	-1.6%	-8	-0.2	-7
Cc1ccc(-n2c(C)cc(=O)cc2C)c(C)c1	0	-2.8	2.2%	5	-0.3	-12
CCc1n[nH]c(=S)n1N=C1CCC(C)CC1 (configuration not stated)	/	-2.0	0.3%	-2	0.7	6
Cc1sc(N2C(=O)C3C(C2=O)[C@H]2C=C[C@@H]3C2)c(C#N)c1C (some centres not stated)	9	-2.9	0.5%	39	3.0	8
CC(C)CN1C(=S)SC(C)(C)C1n1oc(=O)n(-c2ccc(Cl)cc2)c1=O (configuration not stated)	-13	-0.5	1.6%[38.3 µM]	2	3.7	1
Cc1onc(-c2c(F)cccc2Cl)c1C(=O)Oc1ccccc1	22	-1.0	3.6%	/	0.4	13
Cc1ccc(N2CN=C3SCC(=O)N3C2)cc1C	/	-1.6	1.9%	-7	0.4	0
CCOc1ccc(CCNC(=O)CCSCc2ccc(Cl)cc2)cc1OCC	/	/	4.5%	5	1.1	/
CSc1ncnc2c1ncn2CCCNc1ccc(C)c(C)c1	-4	-4.8	0.2%	22	-0.3	-16
Cc1ccccc1CN(C)C(=O)COC(=O)CSc1ccc([N+](=O)[O-])cc1	-5	-7.9	0.4%	0	3.1	-11
c1ccc(Cn2ncc3ccccc32)cc1	10	-2.2	1.9%[38.3 µM]	-13	0.7	8
COc1ccc(N2CC(C(=O)Nc3nnc(SCCC4OCCO4)s3)CC2=O)cc1 (configuration not stated)	2	1.7	-0.9%	-6	-0.2	0
Cc1cc(C(=O)NCCc2ccc(Cl)cc2)c2c(C)nn(-c3cccc(F)c3)c2n1	/	/	2.0%	2	-0.2	/

Arranged by the number under CtBP-E1A blk (lowest first): three from the list above
SMILES,CtBP-E1A blk
Cc1ccc(NC(=O)CSCc2cc(=O)n3nc(C4CC4)sc3n2)cc1,0
CCc1cccc(CC)c1NC(=O)Cn1c(-c2ccccc2Cl)nc2ccccc21,11
Cc1onc(-c2c(F)cccc2Cl)c1C(=O)Oc1ccccc1,22

Continued:
SMILES	CtBP-E1A blk	D2 agonist	PINK1 modulator	TRPML1 blocker	TRPML1 ag	Six1-Eya2 inh
O=C(/C=C/c1cccc(Br)c1)c1ccc2c(c1)OCO2	0	-1.8	-1.6%	4	1.3	1
Cn1c(COc2ccccc2Br)nc2ccccc21	/	-0.7	1.1%	/	/	5
COc1cc(OC)cc(C(=O)Nc2nc(-c3ccccc3)c(-c3ccccc3)o2)c1	12	-7.6	6.5%	13	2.8	4
COc1ccc(CN(C(=O)c2cccs2)c2ccccc2C(=O)O)cc1	/	-5.5	-1.4%	5	-0.3	2
CC(=O)Nc1ccc(S(=O)(=O)NCC2CCC(C(=O)NCc3ccccc3Cl)CC2)cc1 (configuration not stated)	/	/	-0.1%	13	-0.1	/
Cc1cccc(NC(=O)CNC(=O)COC(=O)c2ccco2)c1C	4	-0.6	-2.3%	24	-0.2	10
CCOC(=O)c1c(-c2ccc(C)cc2)csc1NC(=O)C1CCCO1 (configuration not stated)	0	-0.8	2.6%	32	4.4	5
CC(=O)N1C[C@H]2CON(C)[C@H]2C[C@H]1c1ccccc1Br	2	0.6	-1.0%	-20	1.2	1
O=C(NC1CCCCC1)c1cc(Cl)ccc1[N+](=O)[O-]	-23	-1.2	0.9%	1	-1.4	0
CCN1CCN(C(c2ccccc2)c2sc3nc(C)nn3c2O)CC1 (configuration not stated)	-2	-0.6	-1.1%	30	-0.2	4
Nn1c(=S)[nH]nc(Cc2ccc(O)cc2)c1=O	3	-5.4	-0.8%	-21	-0.2	5
O=C(COc1ccccc1)NC(=S)Nc1cccc2c(O)cccc12	-15	1.3	8.1%	-17	6.4	-15
CCOc1ccc(NS(=O)(=O)c2ccc(OCC(=O)NCCCOC)cc2)cc1	-2	-1.3	1.2%[38.3 µM]	1	0.0	3
COC(=O)CCCCCCCCC(O)CN(C)C (configuration not stated)	9	-0.1	0.4%	/	/	5
O=C(COC(=O)c1ccccc1SCC(=O)NC1CCS(=O)(=O)C1)NC1CCS(=O)(=O)C1 (configuration not stated)	10	-4.0	-0.3%	8	-0.4	-3
O=C(CSCc1ccccc1)NC1CCSC1=O (configuration not stated)	6	0.7	-3.5%[38.3 µM]	7	0.0	-2
O=C1c2ccccc2C(=O)N1Cc1nc2ccccc2o1	5	-0.4	-0.3%	4	-0.2	5
COc1ccc(CN2CCC(=O)N([C@H](CO)c3ccccc3)CC2)cc1OC	3	-1.7	0.2%	16	-0.3&14	0
COc1ccccc1OCC(=O)Nc1ccc2c(c1)n(C)c(=O)n2C	6	0.5	0.9%	-24	0.0	0
COc1ccccc1N1CCN(C(c2ccc(C)cc2)c2nnnn2C(C)C)CC1 (configuration not stated)	-2	-1.8	1.4%	5	15	-7
CC(SC(=S)N1CCCC1)C(=O)O (configuration not stated)	4	-2.3	-0.4%	4	-1.0	10
Cc1ccc(CSc2nc3ccncc3[nH]2)cc1	-1	0.8	2.2%	10	0.2	3

Four entries from above, field by field:
> CC(=O)N1C[C@H]2CON(C)[C@H]2C[C@H]1c1ccccc1Br
  CtBP-E1A blk = 2
  D2 agonist = 0.6
  PINK1 modulator = -1.0%
  TRPML1 blocker = -20
  TRPML1 ag = 1.2
  Six1-Eya2 inh = 1

> Nn1c(=S)[nH]nc(Cc2ccc(O)cc2)c1=O
  CtBP-E1A blk = 3
  D2 agonist = -5.4
  PINK1 modulator = -0.8%
  TRPML1 blocker = -21
  TRPML1 ag = -0.2
  Six1-Eya2 inh = 5

> Cc1ccc(CSc2nc3ccncc3[nH]2)cc1
  CtBP-E1A blk = -1
  D2 agonist = 0.8
  PINK1 modulator = 2.2%
  TRPML1 blocker = 10
  TRPML1 ag = 0.2
  Six1-Eya2 inh = 3

> O=C1c2ccccc2C(=O)N1Cc1nc2ccccc2o1
  CtBP-E1A blk = 5
  D2 agonist = -0.4
  PINK1 modulator = -0.3%
  TRPML1 blocker = 4
  TRPML1 ag = -0.2
  Six1-Eya2 inh = 5

Bioassay records (PubChem)
